# Source: PubChem BioAssay
# D2 potentiator: Beta-Arrestin HTS for Positive Allosteric Modulators of the Human D2 Dopamine Receptor: Potentiators; D(2) dopamine receptor (Homo sapiens), P14416; DiscoveRx D2 beta-arrestin cells, luminescence, 90 min; 100% = 57 uM dopamine signal; potentiation, % (no concentration beside the values); 0.23% of 360,000 active; AID 624464, 2012; active = potentiation of 50% or more; inconclusive = 30% to 50%; inactive = 30% or less;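 note: compound concentration not given in the record; tested on top of an EC20 dose of dopamine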
#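 PathHunter beta-arrestin assay in DiscoveRx D2 cells. Compounds were added with an EC20 of dopamine (50 nM final) for 90 min at 37 deg C. Luminescence was read 1 h after detection reagent, with 57 uM dopamine as the EC100 control.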
# Six1-Eya2 blk: qHTS Assay for Inhibitors of the Six1/Eya2 Interaction; AlphaScreen GST-Six1/His-Eya2 binding, biochemical; active compounds read low; control for the full effect not named in the record; activity change, % (concentration not given with the values); 0.56% of 360,000 active; in the data active = activity change below about -65%; inconclusive = about -30% to -65%; inactive = above about -30%; note: % is set by controls: 0 for no effect and ±100 for the full control effect
# Target sequence (O00167 whole entry, looked up): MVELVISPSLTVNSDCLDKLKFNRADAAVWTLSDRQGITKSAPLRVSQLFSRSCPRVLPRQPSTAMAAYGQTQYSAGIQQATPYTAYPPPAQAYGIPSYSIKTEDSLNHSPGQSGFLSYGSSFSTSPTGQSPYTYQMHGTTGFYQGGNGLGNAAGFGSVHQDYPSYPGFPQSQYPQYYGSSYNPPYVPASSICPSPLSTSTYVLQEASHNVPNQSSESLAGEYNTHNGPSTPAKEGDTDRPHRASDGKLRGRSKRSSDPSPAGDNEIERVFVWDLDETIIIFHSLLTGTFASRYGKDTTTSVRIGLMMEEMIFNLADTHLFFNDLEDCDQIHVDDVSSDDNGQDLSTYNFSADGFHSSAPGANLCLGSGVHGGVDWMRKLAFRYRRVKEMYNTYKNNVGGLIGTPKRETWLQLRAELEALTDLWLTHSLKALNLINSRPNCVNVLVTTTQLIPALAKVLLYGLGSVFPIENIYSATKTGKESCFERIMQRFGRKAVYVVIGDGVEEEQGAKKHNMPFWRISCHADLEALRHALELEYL
# Target sequence (Q15475 whole entry, looked up): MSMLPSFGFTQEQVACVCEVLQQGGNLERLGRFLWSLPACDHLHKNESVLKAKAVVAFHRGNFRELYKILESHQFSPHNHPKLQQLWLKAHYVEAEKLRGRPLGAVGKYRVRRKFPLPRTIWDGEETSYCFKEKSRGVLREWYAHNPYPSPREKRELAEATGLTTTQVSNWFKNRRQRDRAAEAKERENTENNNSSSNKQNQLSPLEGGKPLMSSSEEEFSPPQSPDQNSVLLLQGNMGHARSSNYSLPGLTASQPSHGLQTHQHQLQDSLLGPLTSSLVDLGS
#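 Homogeneous AlphaScreen proximity assay pairing GST-Six1 with His-tagged Eya2 (added as 5X mix: 250 nM and 500 nM) in 50 mM Tris pH 8.0, 300 mM NaCl, 1 mM TCEP. Glutathione donor and nickel acceptor beads; 1 h, 37 °C, dark.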
# TRPML1 ag: qHTS for Agonists of the Human Mucolipin Transient Receptor Potential 1 (TRPML1); activation, % (test concentration not listed); 0.12% of 410,000 active; TRPML1-expressing cells, Ca2+ dye fluorescence, FDSS; host cell line not named in the record; reference of the full effect not given here; in the data active = activation above about 50%; inconclusive = about 30% to 50%; inactive = below about 30%; note: 0% is about no effect; the text of the record puts the active cut at 80%
#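 In this qHTS format, compounds were pin-transferred onto Ca8-dye-loaded TRPML1-DL cells induced with Tet overnight, and intracellular Ca2+ fluorescence was recorded kinetically for 110 s after a 10 s baseline. A subsequent 4uM final 54-4 (EC80) addition followed by a second 110 s read served as the antagonist phase.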
# PINK1 expr mod: A Quantitative High throughput Screen to Identify Chemical Modulators of PINK1 Expression | PINK1 immunofluorescence, high-content cytometry, 24 h | Potency, µM (top dose mostly 76.6 µM), for the others: top-dose activation (PINK1 increase), most hits filed as activators | AID 624263, 2012 | 0.2% of 410,000 active; active = well fitted activation curve with a large enough effect; inconclusive = small, poorly fitted or top-dose-only effect; inactive = flat fitted curve, though single readings scatter; cell line not stated here;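 note: potency is the fitted concentration of half-maximal effect; % of control where 0% means no effect; nearly all actives have a fitted effect of over 65% in size; a mitochondrial uncoupler was the plate control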
#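 PINK1 protein, normally rapidly degraded, was detected by immunofluorescence after 24 hour compound treatment of a stable cell line. Titration data (5 concentrations) came from laser-scanning cytometry, with CCCP-treated wells as controls.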
# TRPML1 inh: qHTS for Inhibitors of the Human Mucolipin Transient Receptor Potential 1 (TRPML1). Mucolipin-1 (Homo sapiens), Q9GZU1. TRPML1-inducible cells, Ca2+ dye fluorescence, FDSS; active compounds read low; inhibition of EC80 agonist-evoked calcium signal. activity change, negative = inhibition, % (no concentration beside the values). 0.02% of 390,000 active. AID 624415, 2012; in the data active means activity change below about -50%; inconclusive means about -30% to -50%; inactive means above about -30%;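 note: stimulus is agonist 54-4 at its EC80 concentration; % is set by controls: 0 for no effect and ±100 for the full control effect; compound concentration not given in the record; the text of the record puts the active cut at -80%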
#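 Tet-induced TRPML1-DL cells loaded with Ca8 no-wash calcium dye were read kinetically on FDSS. Compound addition was followed by EC80 agonist 54-4 (4 uM final); inhibition was read over 110 s.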
# D2 agonist: Beta-Arrestin HTS for Positive Allosteric Modulators of the Human D2 Dopamine Receptor: Agonists; DiscoveRx PathHunter D2 beta-arrestin, luminescence, 90 min; 100% = 57 uM dopamine signal; AID 624465, 2012; D(2) dopamine receptor (Homo sapiens), P14416; activation, % (test concentration not listed); 0.084% of 360,000 active; in the data active = activation above about 40%; inconclusive = about 15% to 40%; inactive = below about 15%; note: compound concentration not given in the record; the text of the record calls up to 30% inactive
#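 DiscoveRx PathHunter D2 beta-arrestin cells (2,100/well) attached overnight, then compound-stimulated 90 min at 37 C in HBSS/10 mM HEPES/0.1% Tween-20 buffer; beta-galactosidase complementation read by luminescence after 1 h at ambient temperature. Dopamine 57 uM final (EC100) as control.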
# * hit, by the source's call; ? = inconclusive; nt = no result given; [ ] = another dose, or the depositor's remark.
SMILES,D2 potentiator,Six1-Eya2 blk,TRPML1 ag,PINK1 expr mod,TRPML1 inh,D2 agonist
COc1ccc2c3n([n+]([O-])c2c1)CCN=C3c1ccc(Cl)cc1,-3,4,-0.1,2.1%,-3,-2.4
CCOC(=O)c1cc(-c2ccccc2)sc1NC(=O)CC(C)C,-12,20,4.8,6.6%,-4,-4.3
COc1cc2c(cc1OC)C(C(=O)NC1CC1)C1c3ccccc3CCN1C2=O (stereo unspecified),-4,9,-0.4,0.2%,1,-5.3
Cc1ccc2nc(-c3ccc(NS(=O)(=O)c4c(C)n(C)c(=O)n(C)c4=O)cc3)sc2c1,-11,-14,?,-0.3%,12,-1.5
Cc1onc(-c2c(F)cccc2Cl)c1C(=O)NCc1ccccc1,-3,3,1.2,9.8%,2,-4.6
COC(=O)c1c(NC(=O)COC(=O)Cn2cnc3ccccc32)sc2c1CCCC2,6,-15,-0.1,-0.4%,4,-0.3
Cc1cc(C)cc(N2CC(O)Cn3c2nc2c3c(=O)[nH]c(=O)n2C)c1 (stereo unspecified),-4,1,1.5,-0.7%,-10,0.6
N#Cc1c(-c2ccccc2)nc(SCC(=O)NC2CCCCC2)[nH]c1=O,-4,4,1.1,1.3%,2,-2.5
Cc1ccc(/C=N/NC(=O)c2nnn(-c3nonc3N)c2C(C)C)o1,-2,0,3.9,-1.1%,2,-2.9
COc1ccccc1-c1noc(-c2ccncc2)n1,-24,-6,1.5,1.0%,-2,2.3
O=C(Nc1cccc2ncccc12)c1cccc(Br)c1,-9,0,1.7,5.3%,4,-2.3
CSc1ccc(/C=C(/NC(=O)c2ccco2)C(=O)N2CCOCC2)cc1,4,-2,-0.2,1.2%,3,0.6
CCCCNC(=O)COc1ccccc1C(=O)c1cc(C#N)c(=O)n(CCOC)c1,7,4,2.2,0.7%,5,2.5
COc1ccc(CCC(=O)NCCOc2ccc(C)cc2)cc1,-3,12,2.4,-2.5%,6,-3.1
Cc1cccc(NC(=S)/N=C(\N)Nc2nc(C)c3cc(C)ccc3n2)c1,-1,-14,1.4,2.0%,-13,-2.8

# Gathered by group: the compounds so far containing a furan ring, fused or not (2)
SMILES,D2 potentiator,Six1-Eya2 blk,TRPML1 ag,PINK1 expr mod,TRPML1 inh,D2 agonist
Cc1ccc(/C=N/NC(=O)c2nnn(-c3nonc3N)c2C(C)C)o1,-2,0,3.9,-1.1%,2,-2.9
CSc1ccc(/C=C(/NC(=O)c2ccco2)C(=O)N2CCOCC2)cc1,4,-2,-0.2,1.2%,3,0.6

# Next section
SMILES,D2 potentiator,Six1-Eya2 blk,TRPML1 ag,PINK1 expr mod,TRPML1 inh,D2 agonist
Cc1ncoc1C(=O)NC1CCCc2c1cnn2-c1ccc(C(C)(C)C)cc1 (stereo unspecified),-9,0,0.7,0.1%,39,0.3
O=C(CSc1nc2cccnc2n1Cc1ccccc1)NC1CCCCC1,5,1,-0.2,-0.9%,34,-3.5
COc1cccc(OC)c1C(=O)Nc1sc2c(c1C#N)CCC2,2,3,0.7,5.7%,2,5.8
O=C(CN1CCc2ccccc2C1)Nc1ccccc1Cl,-41,7,nt,2.0%,nt,7.9
COCc1cc(C)nc2sc(C(=O)NC3CCCCC3)c(N)c12,-19,7,0.7,5.5%,42,-2.3
C[C@H]1CN([C@@H](C)CO)C(=O)CCCn2cc(nn2)CO[C@@H]1CN(C)C(=O)Nc1ccc(N2CCCCC2)cc1,4,-4,-0.8,1.6%,-4,-2.5
CC(C)C(NS(=O)(=O)c1ccc2c(c1)oc(=O)n2C)C(=O)NCCc1ccccc1 (stereo unspecified),nt,nt,0.4,0.7%,-4,nt
Cc1cc(C)nc(SCC(=O)N2CCOCC2)n1,-4,3,0.4,2.5%[38.3 µM],33,1.3
CCOC(=O)C1CCN(C(=O)C(C)N(c2ccc(Oc3ccccc3)cc2)S(C)(=O)=O)CC1 (stereo unspecified),-3,-12,0.9,1.7%,5,-6.9
COc1ccc(Cl)cc1NC(=O)CN(C)C(=O)c1cccc2cccnc12,-15,2,-0.5,1.3%,-5,-2.9
COc1cccc(NC(=O)N2CCCC2C(=O)NCc2ccc(Cl)cc2)c1 (stereo unspecified),-4,4,0.0,-1.0%,-6,-3.0
Cc1ccc2nc(C)/c(=N\O)c(C)nc2c1,2,1,-0.5,-3.7%[38.3 µM],22,2.1
O=C(Nc1ccc2nc(SCC(=O)N3CCc4ccccc43)sc2c1)c1cccc(Cl)c1,nt,nt,0.5,3.4%,-6,nt
Cc1cc(-c2nc(C)c(-c3nnc(SCC(=O)Nc4cc(Cl)cc(Cl)c4)n3C)s2)no1,-9,11,-1.2,8.2%,6,-3.3
CCC(=O)Nc1ccc(C(=O)Nc2cccc(C)n2)cc1,-6,0,0.3,0.2%,-5,-1.7

# Five compounds out of the list above, ordered by the value under Six1-Eya2 blk, rising:
SMILES	Six1-Eya2 blk
Cc1ncoc1C(=O)NC1CCCc2c1cnn2-c1ccc(C(C)(C)C)cc1 (stereo unspecified)	0
Cc1ccc2nc(C)/c(=N\O)c(C)nc2c1	1
COc1cccc(NC(=O)N2CCCC2C(=O)NCc2ccc(Cl)cc2)c1 (stereo unspecified)	4
COCc1cc(C)nc2sc(C(=O)NC3CCCCC3)c(N)c12	7
Cc1cc(-c2nc(C)c(-c3nnc(SCC(=O)Nc4cc(Cl)cc(Cl)c4)n3C)s2)no1	11

# Next section
SMILES,D2 potentiator,Six1-Eya2 blk,TRPML1 ag,PINK1 expr mod,TRPML1 inh,D2 agonist
O=C1CC(N2CCOCC2)C(=O)N1Cc1ccc(N2CCCC2=O)cc1 (stereo unspecified),-2,1,-0.7,-1.1%,-19,0.5
CCc1[nH]nc2c1C(c1cccnc1)C(C#N)=C(N)O2 (stereo unspecified),-4,2,0.2,-2.6%,-5,-0.6
COc1ccc(C2/C(=C(/O)c3ccccc3)C(=O)C(=O)N2CCN2CCOCC2)c(OC)c1 (stereo unspecified),11,-3,-0.7,-0.3%,-10,-5.0
Cc1nn(Cc2cccc(C(=O)N3N=C(C(F)F)CC3(O)C(F)F)c2)c(C)c1[N+](=O)[O-] (stereo unspecified),-8,-1,0.5,0.8%[38.3 µM],-1,3.0
O=S(=O)(Nc1ccc(Cc2ccncc2)cc1)c1ccc(Br)cc1,-5,-2,0.6,5.9%[38.3 µM],-12,3.8
O=C(CSc1ncn(-c2ccccc2)n1)Nc1ccc2c(c1)OCO2,0,-1,0.3,0.6%,0,0.2
COc1ccc(NC(=O)CS(=O)CC(=O)Nc2cccc3cccnc23)cc1 (stereo unspecified),-2,3,-0.3,2.7%,-5,2.5
COc1cc2ccccc2cc1C(=O)Nc1ccc2oc(-c3cccc(Cl)c3Cl)nc2c1,nt,nt,-0.2,0.1%,-12,nt
COc1ccc(C)c2sc(NC(=O)c3ccc(S(=O)(=O)N4CCCCC4)cc3)nc12,nt,nt,0.7,-3.7%,-15,nt
CCOc1cc(CO)cc(Br)c1OCC(=O)Nc1ccccc1C,1,7,0.3,0.7%,-18,-2.3
Cc1ccc(NC(=O)NC2CCN(S(=O)(=O)c3ccc(F)cc3)CC2)cc1,8,1,0.5,nt,-8,0.9
COc1ccc(-c2nc(C)c(CCNC(=O)c3cccs3)s2)cc1,nt,nt,2.3,-0.6%,-9,nt
O=C(O)c1ccccc1-c1ccccc1C(=O)NCCCO,-8,3,-0.6,-4.2%[38.3 µM],4,0.4
CCOC(=O)c1sc(NC(=S)NC(=O)c2cccc(Cl)c2)c(C(=O)OCC)c1C,-6,2,0.3,0.9%,8,-1.4
CCOC(=O)Cc1sc(N)nc1C,-19,10,0.1,1.5%,4,1.2

# Compounds above that have bromine (3):
SMILES,D2 potentiator,Six1-Eya2 blk,TRPML1 ag,PINK1 expr mod,TRPML1 inh,D2 agonist
O=C(Nc1cccc2ncccc12)c1cccc(Br)c1,-9,0,1.7,5.3%,4,-2.3
O=S(=O)(Nc1ccc(Cc2ccncc2)cc1)c1ccc(Br)cc1,-5,-2,0.6,5.9%[38.3 µM],-12,3.8
CCOc1cc(CO)cc(Br)c1OCC(=O)Nc1ccccc1C,1,7,0.3,0.7%,-18,-2.3

# Remaining list, next part
SMILES,D2 potentiator,Six1-Eya2 blk,TRPML1 ag,PINK1 expr mod,TRPML1 inh,D2 agonist
COC(=O)/C=c1\[nH]c2nnc(C)n2c1=O,-6,-2,-0.8,1.8%,-15,-3.0
CC(C)CCn1nnnc1C(c1ccc(N(C)C)cc1)N1CCN(C(=O)c2ccco2)CC1 (stereo unspecified),-1,-13,1.0,-0.4%,5,3.7
CC(=O)c1ccc(S(=O)(=O)NC2CC(=O)N(c3ccc(C)cc3)C2)cc1 (stereo unspecified),6,0,0.6,0.6%,7,0.7
O=C(CN(CC1CCCO1)C(=O)CNS(=O)(=O)c1ccc(F)cc1)NCc1ccco1 (stereo unspecified),1,-1,-0.2,-0.1%,1,5.4
C=C(C)CNC(=S)Nc1cccc(N)n1,1,4,-0.2,2.9%,9,2.2
Cc1nn(C)c2c1c(C(F)(F)F)cc(=O)n2CC(=O)N1CCC(C)CC1,nt,nt,0.9,-0.2%,10,nt
CCOC(=O)c1c(C)[nH]c(C(=O)Cn2c(=O)oc3ccccc32)c1C,-27,-2,-1.0,2.6%,-10,-0.6
CCC(C)N(C(=O)c1csnn1)C(C(=O)NCc1ccc(F)cc1)c1ccccc1F (stereo unspecified),-3,5,0.4,-1.8%,-15,-2.8
CCCCc1ccc(Nc2ncccc2C#N)cc1,9,56,2.7,-0.4%,5,-3.5
O=C(CC[C@H]1O[C@@H](n2cnc3c(NC(=O)c4ccccc4)ncnc32)[C@H](O)[C@@H]1O)NCc1ccccn1,-5,-1,-0.8,-0.7%,nt,-4.1
Cc1nc(NCCc2ccccc2)c2nnn(Cc3ccccc3Cl)c2n1,-4,12,-0.2,0.7%,-6,9.5
CCCc1cc(C(=O)Nc2ccc(OC)cc2[N+](=O)[O-])cs1,-6,?,0.0,2.0%,-7,-0.3
CCc1cc(-c2nnn(CCC3COCCO3)c2CC)cc(CC)c1-c1cn(CCc2c[nH]c3ccccc23)nn1 (stereo unspecified),0,-4,-0.8,-2.3%,4,0.1
Cc1cccc(C)c1NC(=O)COC(=O)C1CC(=O)N(Cc2ccccc2)C1 (stereo unspecified),-31,-1,-0.2,0.3%,15,-2.4
COc1ccccc1CNCc1cccs1,-28,5,1.0,-3.1%,-1,-0.3
COc1ccc(C=O)c(OC)c1,-3,5,0.3,3.1%,33,-1.5
CC1CCC(NC(=O)C2(C)Cc3ccccc3C(=O)N2Cc2ccc(Cl)cc2)CC1 (stereo unspecified),nt,nt,0.1,0.6%,32,nt
COc1ccc(C2C(C#N)=C(N)N(N(C)C)C3=C2C(=O)CC(C)(C)C3)cc1OC (stereo unspecified),5,-1,1.4,3.1%,-7,1.9
